D2 potentiator = positive allosteric modulators of human D2 dopamine receptor; potentiation, % (no concentration beside the values); AID 624464; hit rate 0.23% among 360,000; DiscoveRx D2 beta-arrestin cells, luminescence, 90 min; 100% = 57 uM dopamine signal; active = potentiation of 50% or more; inconclusive = 30% to 50%; inactive = 30% or less;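 also: compound concentration not given in the record; tested on top of an EC20 dose of dopamine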
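PathHunter beta-arrestin assay in DiscoveRx D2 cells. Compounds were added with an EC20 of dopamine (50 nM final) for 90 min at 37 deg C. Luminescence was read 1 h after detection reagent, with 57 uM dopamine as the EC100 control.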
PINK1 expr mod = PINK1 expression modulation; PINK1 immunofluorescence, high-content cytometry, 24 h; Potency, µM (highest dose often 76.6 µM), inactives show top-dose activation (PINK1 increase), actives largely listed as activators; AID 624263; hit rate 0.2% among 410,000; active = well fitted activation curve with a large enough effect; inconclusive = small, poorly fitted or top-dose-only effect; inactive = flat fitted curve, though single readings scatter; cell line not stated here;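 also: potency is read from the fitted curve at half-maximal effect; % of control where 0% means no effect; nearly all actives have a fitted effect of over 65% in size; a mitochondrial uncoupler was the plate control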
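Compound titrations (5 concentrations, 24 h) on a stable cell line; DMSO and CCCP controls. Endpoint: fixed-cell PINK1 immunofluorescence with mitochondrial, cell and nuclear markers, scanned by microplate cytometer.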
Sfp PPTase inh = inhibitors of Bacillus subtilis Sfp phosphopantetheinyl transferase. Q9F4F7. hit rate 3.5% among 310,000. Biochemical Sfp PPTase activity, qHTS. Potency, µM, for the others: max response, negative = inhibition, most hits filed as inhibitors; active = well fitted inhibition curve with a large enough effect; inconclusive = small, poorly fitted or top-dose-only effect, or another doubt; inactive = no such curve, though single readings can be large or run the other way;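 also: the enzyme is Sfp with the accession as filed and its product quenches rhodamine fluorescence; potency is read from the fitted curve at half-maximal effect; 0% = enzyme reaction without inhibitor and -100% = no enzyme wells; top concentration of the series not given in the record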
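Fluorescence-quenching assay with 15 nM Sfp, 5 uM rhodamine-CoA and 12.5 uM BHQ-2-labelled ybbR peptide in pH 7.6 Hepes/MgCl2 buffer. Enzyme was pre-incubated with compound for 15 min at room temperature. Rate was taken from the 30-min fluorescence change (525/598 nm).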
D2 ag = human D2 receptor agonism in beta-arrestin assay | P14416 | DiscoveRx PathHunter D2 beta-arrestin, luminescence, 90 min; 100% = 57 uM dopamine signal | activation, % (test concentration not listed) | hit rate 0.084% among 360,000; in the data active = activation above about 40%; inconclusive = about 15% to 40%; inactive = below about 15%; also: compound concentration not given in the record; the text of the record calls up to 30% inactive
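Agonist mode: compounds alone added to overnight-plated D2 PathHunter cells for 90 min at 37 C, with 57 uM final dopamine (EC100) defining full response. Beta-arrestin recruitment detected by chemiluminescent reagent, read after 1 h at ambient temperature.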
CtBP-E1A blk = CtBP/E1A binding inhibition. hit rate 0.49% among 340,000. AlphaScreen GST-E1A/His-CtBP binding, 1536-well; stronger effect = lower value; control for the full effect not named in the record. activity change, % (concentration not given with the values); in the data active means activity change below about -65%; inconclusive means about -30% to -65%; inactive means above about -30%; also: % is scaled to controls: 0 for no effect and ±100 for the full control effect
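In 5 uL wells, 23 nL compound meets equimolar GST-E1A and His-CtBP (5X stock 125 nM each) for 2 h, 37 °C. Beads (5X, 50 ug/mL) then 1 h, 37 °C, dark.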
TRPV1 potentiator = enhances activation of the human vanilloid receptor TRPV1; TRPV1-expressing cells, Fluo-8 calcium influx, capsaicin EC20 potentiation; host cell line not named in the record; control for the full effect not named in the record; potentiation, % at 8.33 µM; hit rate 0.02% among 320,000; active means potentiation above 80%; inconclusive means 30% to 80%; inactive means below 30%; also: 0% is about no effect
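Fluo-8 calcium influx in TRPV1-expressing cells, kinetic read (ex 480/em 520 nm). Compound added and read 3 min for agonist activity, followed by capsaicin at EC20 final and 2 min further read for enhancement.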
Six1-Eya2 blk = Six1/Eya2 interaction inhibition; hit rate 0.56% among 360,000; activity change, % (concentration not given with the values); AID 651725; AlphaScreen GST-Six1/His-Eya2 binding, biochemical; stronger effect = lower value; control for the full effect not named in the record; in the data active = activity change below about -65%; inconclusive = about -30% to -65%; inactive = above about -30%; also: % is scaled to controls: 0 for no effect and ±100 for the full control effect
Target sequence (O00167 whole entry, looked up): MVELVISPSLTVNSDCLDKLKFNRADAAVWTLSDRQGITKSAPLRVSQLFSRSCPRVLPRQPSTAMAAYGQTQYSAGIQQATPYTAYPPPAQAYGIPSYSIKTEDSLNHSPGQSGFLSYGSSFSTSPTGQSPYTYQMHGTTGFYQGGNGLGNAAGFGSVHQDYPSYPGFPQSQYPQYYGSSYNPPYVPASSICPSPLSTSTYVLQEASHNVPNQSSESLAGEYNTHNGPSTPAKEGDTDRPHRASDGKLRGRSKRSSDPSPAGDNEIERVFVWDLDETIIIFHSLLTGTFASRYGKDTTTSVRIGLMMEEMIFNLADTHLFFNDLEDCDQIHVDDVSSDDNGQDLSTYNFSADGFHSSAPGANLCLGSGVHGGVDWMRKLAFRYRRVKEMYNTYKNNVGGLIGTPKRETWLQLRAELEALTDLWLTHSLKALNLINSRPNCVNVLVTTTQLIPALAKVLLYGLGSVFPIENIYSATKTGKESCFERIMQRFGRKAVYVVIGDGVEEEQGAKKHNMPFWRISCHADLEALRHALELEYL
Target sequence (Q15475 whole entry, looked up): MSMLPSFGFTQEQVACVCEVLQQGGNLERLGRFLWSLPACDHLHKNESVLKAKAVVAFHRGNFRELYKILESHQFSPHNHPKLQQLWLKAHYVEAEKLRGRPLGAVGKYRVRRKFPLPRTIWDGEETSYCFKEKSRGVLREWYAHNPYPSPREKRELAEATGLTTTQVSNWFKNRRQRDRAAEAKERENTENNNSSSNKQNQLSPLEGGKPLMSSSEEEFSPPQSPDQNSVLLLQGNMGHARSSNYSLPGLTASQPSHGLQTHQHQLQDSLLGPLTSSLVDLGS
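AlphaScreen with GST-Six1 and His-Eya2 (5X mix: 250 nM and 500 nM), glutathione donor and nickel acceptor beads; buffer 50 mM Tris pH 8.0, 300 mM NaCl, 1 mM TCEP; 1 h at 37 C in the dark.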
* = called active by the depositor; & = joins results of further samples; [ ] = dose if it differs, or a comment.

Screening O=C(NCCN1CCOCC1)C1CCC(=O)N1Cc1ccccc1Cl (stereo not given) returned D2 potentiator 7, PINK1 expr mod 1.2%, Sfp PPTase inh 7%, D2 ag -1.5, CtBP-E1A blk 1, TRPV1 potentiator inconclusive and Six1-Eya2 blk 12.
CCOc1ccc(N=C(/C(C(=O)C(=O)N2CCOCC2)=C(/O)c2ccccc2)c2ccccc2)cc1 was read as D2 potentiator -21, PINK1 expr mod 0.8%, Sfp PPTase inh 0%, D2 ag -7.2, TRPV1 potentiator -14 and Six1-Eya2 blk 14.
`Cc1cccc(N2CCN(C(=O)C3CCC(=O)N(C4CC4)C3)CC2)c1C` (stereo not given) gave D2 potentiator -10, PINK1 expr mod -0.3%, Sfp PPTase inh 7%, D2 ag -1.1, CtBP-E1A blk -1, TRPV1 potentiator 7 and Six1-Eya2 blk 5.
For Cc1ccc(C)c(-n2c(Cc3cc(=O)[nH]c(=O)[nH]3)nnc2SCC(=O)NCc2ccco2)c1 the results were D2 potentiator 10, PINK1 expr mod -4.5%, D2 ag 1.4, CtBP-E1A blk 0 and Six1-Eya2 blk 0.
`COc1ccc(S(=O)(=O)N(C)C(C)CCc2ccco2)cc1` (stereo not given) gave D2 potentiator -6, PINK1 expr mod -0.7%, Sfp PPTase inh -18%, D2 ag 2.5, CtBP-E1A blk -3, TRPV1 potentiator 11 and Six1-Eya2 blk -3.
For N/C(=N\OC(=O)c1ccc(Br)cc1)c1ccccc1 the results were D2 potentiator 13, PINK1 expr mod 13%[38.3 µM], Sfp PPTase inh 5%, D2 ag 6.1, CtBP-E1A blk 5, TRPV1 potentiator -25 and Six1-Eya2 blk 12.
`CCC(=O)Nc1ccc(Cl)c(NC(=S)NC(=O)COc2ccccc2)c1` gave D2 potentiator -5, PINK1 expr mod -1.3%, Sfp PPTase inh -2%, D2 ag -8.0, CtBP-E1A blk 0, TRPV1 potentiator 7 and Six1-Eya2 blk 4.
For CC1CN(S(=O)(=O)c2ccccc2)CC(C)O1 (stereo not given) the results were D2 potentiator -7, PINK1 expr mod 1.3%[38.3 µM], Sfp PPTase inh -11%, D2 ag -2.2, CtBP-E1A blk 5, TRPV1 potentiator -4 and Six1-Eya2 blk 2.
For c1ccc(Cc2nnc(N3CCOCC3)c3ccccc23)cc1 the results were D2 potentiator -1, PINK1 expr mod 0.8%, Sfp PPTase inh 5%, D2 ag -1.6, CtBP-E1A blk 0, TRPV1 potentiator -19 and Six1-Eya2 blk -2.
Screening CC(=O)Nc1nnc(SCC(=O)Nc2ccc3c(c2)OCCO3)s1 returned D2 potentiator -6, PINK1 expr mod 6.1%, Sfp PPTase inh -4%, D2 ag -4.9, CtBP-E1A blk 14, TRPV1 potentiator 11 and Six1-Eya2 blk 1.
`COc1ccc(OCCN2CCC(C(=O)NC(C)c3cccc4ccccc34)CC2)cc1` (stereo not given) gave D2 potentiator -21, PINK1 expr mod 0.7%, D2 ag -1.2, CtBP-E1A blk -1 and Six1-Eya2 blk -4.
CCCCNC(=O)O[C@H]1C[C@@H]2CCN3C(=O)CCC[C@H]([C@H]1Cc1ccccc1)[C@H]23 was read as D2 potentiator -11, PINK1 expr mod -1.5%, Sfp PPTase inh 7%, D2 ag 0.3, CtBP-E1A blk -6, TRPV1 potentiator -3 and Six1-Eya2 blk -22.
For Cc1ccc(/C=C/C(=O)OCC(=O)Nc2cccc(S(=O)(=O)N(C)C)c2)o1 the results were D2 potentiator -31, PINK1 expr mod 2.0%, Sfp PPTase inh -16%, D2 ag -2.5, CtBP-E1A blk 8, TRPV1 potentiator 4 and Six1-Eya2 blk -4.
CC(=O)c1ccc(C(=O)N2CCCC(CO)(Cc3ccccc3C)C2)s1 (stereo not given) was read as D2 potentiator -24, PINK1 expr mod 1.7%, Sfp PPTase inh 4%, D2 ag -0.6, CtBP-E1A blk -3, TRPV1 potentiator -5 and Six1-Eya2 blk 3.
CCn1c(/C=C/c2ccccc2F)nc2ccccc2c1=O was read as D2 potentiator -2, PINK1 expr mod 3.7%, Sfp PPTase inh 0%, D2 ag -0.5, CtBP-E1A blk -5, TRPV1 potentiator -9 and Six1-Eya2 blk -16.
`O=C(O)CC1(CC(=O)Nc2cc(F)ccc2Cl)CCCCC1` gave D2 potentiator -5, PINK1 expr mod 0.7%, Sfp PPTase inh 19%, D2 ag -1.5, CtBP-E1A blk 1, TRPV1 potentiator 14 and Six1-Eya2 blk 4.
Screening c1cc2cn[nH]c2cc1NC1CCCCCC1 returned D2 potentiator 0, Sfp PPTase inh 45µM*, D2 ag 2.8, CtBP-E1A blk 12, TRPV1 potentiator 4 and Six1-Eya2 blk -7.
CCCCN(CC)c1nc(N)c2c(N)nc(OCC)cc2c1C#N was read as D2 potentiator -9, PINK1 expr mod 5.5%, Sfp PPTase inh -9%, D2 ag 0.4, CtBP-E1A blk inconclusive, TRPV1 potentiator -10 and Six1-Eya2 blk inconclusive.
For S=C(NCc1ccco1)Nc1ccc(N2CCOCC2)cc1 the results were D2 potentiator -2, PINK1 expr mod -1.1%, Sfp PPTase inh -22%, D2 ag 1.9, CtBP-E1A blk 6, TRPV1 potentiator 1 and Six1-Eya2 blk -2.
`CC1(C)CC(=O)C(C(c2ccc(F)cc2)C2C(=O)CC(C)(C)CC2=O)C(=O)C1` gave D2 potentiator -13, PINK1 expr mod -0.6%, Sfp PPTase inh -33%, D2 ag 0.1, CtBP-E1A blk -6, TRPV1 potentiator 12 and Six1-Eya2 blk 1.
`O=C(NCCS(=O)(=O)NCc1ccc(F)cc1)c1ccccc1` gave D2 potentiator -19, PINK1 expr mod -3.0%, D2 ag -2.7, CtBP-E1A blk -12, TRPV1 potentiator 11 and Six1-Eya2 blk 12.
`COc1ccc(CCNC(=O)C2CCN(C(=O)c3cccs3)CC2)cc1` gave D2 potentiator 1, PINK1 expr mod 0.8%, Sfp PPTase inh 13%, D2 ag -2.1, CtBP-E1A blk 6, TRPV1 potentiator -3 and Six1-Eya2 blk -1.
COc1ccccc1N1CC(C(=O)NCCN2C(=O)S/C(=C\c3cccnc3)C2=O)CC1=O (stereo not given) was read as D2 potentiator -14, PINK1 expr mod 1.4%, D2 ag 5.6, TRPV1 potentiator 3 and Six1-Eya2 blk -1.
COc1ccc(C(=S)N2CCCC2)cc1Br was read as D2 potentiator 0, PINK1 expr mod 0.0%, Sfp PPTase inh 2%, D2 ag 8.6, CtBP-E1A blk 1, TRPV1 potentiator 20 and Six1-Eya2 blk -15.
`C=CCSc1nc(N)c(C(=O)Nc2ccccc2)cc1C#N` gave D2 potentiator 3, PINK1 expr mod 13%, Sfp PPTase inh -1%, D2 ag -0.4, CtBP-E1A blk 2, TRPV1 potentiator -5 and Six1-Eya2 blk 0.
For CCOc1ccc(C(=O)CCC(=O)N(CC)CC(=O)NCc2ccc(Cl)cc2)cc1 the results were D2 potentiator -4, PINK1 expr mod 4.9%, Sfp PPTase inh 11%, D2 ag 2.9, CtBP-E1A blk 13, TRPV1 potentiator -19 and Six1-Eya2 blk -3.
N#Cc1c(Cl)cccc1-n1ccnc1 was read as D2 potentiator -1, PINK1 expr mod inconclusive, Sfp PPTase inh 8%, D2 ag -0.4, CtBP-E1A blk -4, TRPV1 potentiator 4 and Six1-Eya2 blk 1.
For CCc1nc2ccc(C(=O)N3CCN(S(=O)(=O)CC)CC3)cn2c1N(C)C(=O)C1CCCCC1 the results were D2 potentiator -9, PINK1 expr mod -0.4%, D2 ag -5.2, CtBP-E1A blk 1 and Six1-Eya2 blk 0.
Screening COc1cc(C2NC(=O)C(C#N)=C(Nc3cccc(C)c3)S2)ccc1O (stereo not given) returned D2 potentiator -25, PINK1 expr mod 3.5%, Sfp PPTase inh 20µM*, D2 ag -4.6, TRPV1 potentiator 4&1 and Six1-Eya2 blk 0.
Screening Cc1noc(C)c1C(=O)NC1=NCCS1 returned D2 potentiator -13, PINK1 expr mod 0.1%, Sfp PPTase inh -1%, D2 ag -6.1, CtBP-E1A blk -14, TRPV1 potentiator -17 and Six1-Eya2 blk -2.
For N/C(=N\OC(=O)CCCOc1ccccc1)c1ccccc1 the results were D2 potentiator -3, PINK1 expr mod -1.7%, Sfp PPTase inh -7%, D2 ag -3.3, CtBP-E1A blk 85, TRPV1 potentiator 1 and Six1-Eya2 blk 75.
CS(=O)(=O)C1=C(O)C(=O)N(CCCC(=O)O)C1c1ccccc1F (stereo not given) was read as D2 potentiator -6, PINK1 expr mod -2.3%, Sfp PPTase inh 2%, D2 ag 1.7, CtBP-E1A blk -21, TRPV1 potentiator inconclusive and Six1-Eya2 blk 4.
CC1C(=O)CC(c2ccccc2)N(C)C1c1ccccc1 (stereo not given) was read as D2 potentiator -5, PINK1 expr mod 29%, Sfp PPTase inh 1%, D2 ag -4.1, CtBP-E1A blk -16, TRPV1 potentiator -16 and Six1-Eya2 blk 6.
`CCCN1CCC(NC(=O)Nc2ccc(Br)cc2)CC1` gave D2 potentiator -13, PINK1 expr mod -0.7%, Sfp PPTase inh 14%, D2 ag -1.2, TRPV1 potentiator 3 and Six1-Eya2 blk 9.
`CS(=O)(=O)Nc1ccc(S(=O)(=O)NCCc2ccccc2)cc1` gave D2 potentiator -8, PINK1 expr mod inconclusive, Sfp PPTase inh 7%, D2 ag -0.3, CtBP-E1A blk -6, TRPV1 potentiator -3 and Six1-Eya2 blk 4.
OCCC1CN(Cc2cccc(OC3CCCC3)c2)CCN1Cc1ccsc1 (stereo not given) was read as D2 potentiator -18, PINK1 expr mod 9.3%, Sfp PPTase inh 6%, D2 ag -0.8, CtBP-E1A blk 1, TRPV1 potentiator -5 and Six1-Eya2 blk -12.
For COc1ccc(CNC(=O)CCCN2C(=O)c3ccccc3C2=O)cc1 the results were D2 potentiator -6, PINK1 expr mod -1.2%, Sfp PPTase inh 11%, D2 ag 2.4, TRPV1 potentiator -1 and Six1-Eya2 blk 5.
OCCNc1ncnc2ccc(Br)cc12 was read as D2 potentiator inconclusive, PINK1 expr mod -0.9%, Sfp PPTase inh 19%, D2 ag 0.7, CtBP-E1A blk 9, TRPV1 potentiator 0 and Six1-Eya2 blk 8.

Compounds above containing two or more sulfur atoms:
Screening CC(=O)Nc1nnc(SCC(=O)Nc2ccc3c(c2)OCCO3)s1 returned D2 potentiator -6, PINK1 expr mod 6.1%, Sfp PPTase inh -4%, D2 ag -4.9, CtBP-E1A blk 14, TRPV1 potentiator 11 and Six1-Eya2 blk 1.
`CS(=O)(=O)Nc1ccc(S(=O)(=O)NCCc2ccccc2)cc1` gave D2 potentiator -8, PINK1 expr mod inconclusive, Sfp PPTase inh 7%, D2 ag -0.3, CtBP-E1A blk -6, TRPV1 potentiator -3 and Six1-Eya2 blk 4.
